# KCNQ2 block: KCNQ2 potassium channel inhibitors, primary screen, cell-based, CHO-K1, FluxOR thallium flux, B-score (AID 2156). B-score at 10 µM. hit rate 1.1% among 310,000. Potassium voltage-gated channel subfamily KQT member 2 (Rattus norvegicus), O88943. 20 min; active compounds read low; only compounds with negative scores are shown here; some inactives read as strong as hits;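 active = fluorescence ratio B-score at most minus 3 library SDs, with starting brightness B-score within 2 library SDs, cut at about -5.5 in these data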
# Target sequence (O88943 whole entry, looked up): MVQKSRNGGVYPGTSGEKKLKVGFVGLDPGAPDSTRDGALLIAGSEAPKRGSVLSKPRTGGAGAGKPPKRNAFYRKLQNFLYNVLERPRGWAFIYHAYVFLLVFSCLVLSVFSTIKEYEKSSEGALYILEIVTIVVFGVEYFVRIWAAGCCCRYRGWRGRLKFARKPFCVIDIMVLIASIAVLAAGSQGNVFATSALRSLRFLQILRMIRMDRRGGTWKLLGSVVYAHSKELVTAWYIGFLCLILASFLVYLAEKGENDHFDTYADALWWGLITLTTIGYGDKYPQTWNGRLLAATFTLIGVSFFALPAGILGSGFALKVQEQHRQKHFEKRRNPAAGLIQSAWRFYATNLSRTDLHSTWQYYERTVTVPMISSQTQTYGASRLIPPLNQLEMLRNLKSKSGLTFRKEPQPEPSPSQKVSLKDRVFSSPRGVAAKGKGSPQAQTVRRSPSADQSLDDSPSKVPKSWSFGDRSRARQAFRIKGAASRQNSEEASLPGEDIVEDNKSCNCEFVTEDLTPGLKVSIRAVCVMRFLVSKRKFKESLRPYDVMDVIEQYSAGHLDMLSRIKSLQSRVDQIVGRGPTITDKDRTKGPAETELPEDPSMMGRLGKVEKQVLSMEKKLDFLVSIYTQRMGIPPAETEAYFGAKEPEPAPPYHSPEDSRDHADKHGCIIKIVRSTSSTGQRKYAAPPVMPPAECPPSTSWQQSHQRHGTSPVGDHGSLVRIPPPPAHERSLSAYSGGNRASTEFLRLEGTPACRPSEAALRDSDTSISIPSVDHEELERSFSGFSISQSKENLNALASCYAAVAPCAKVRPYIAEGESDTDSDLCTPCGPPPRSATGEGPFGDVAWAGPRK
# KCNQ2 block baseline: second read-out of KCNQ2 block, no call of its own (marks repeat the call); B-score; measured here: initial fluorescence intensity artifact check;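 brightness before thallium and not channel activity; 0 = typical well and far values either way flag optical interference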
# The depositor's hits bear a star; i = inactive.
SMILES,KCNQ2 block,KCNQ2 block baseline
Cc1cc(C)c(-c2csc(NC(=O)c3cc([N+](=O)[O-])ccc3N3CCOCC3)n2)c(C)c1,i,1.58
Cc1cc(=O)oc(C)c1C(=O)NCC(C)NC(=O)c1c(C)cc(=O)oc1C (stereo not given),i,-2
CCCCN1C(=O)C(=O)N(CC(=O)N2CCN(c3ccccc3)CC2)C1=O,i,-0.59
CCN(Cc1ccccc1)S(=O)(=O)c1cc2c3c(c1)CCN3C(=O)CC2,i,0.01
OC(COc1ccc(Cl)cc1Cl)CN1CCc2ccccc2C1 (stereo not given),i,-1.37
Clc1ccc(OCc2nnnn2-c2ccccc2)cc1,i,-0.08
C=COCCNC(=O)C(=O)NCC(C)C,i,-0.02
CCN(Cc1ccccc1)C(=O)C1CCN(Cc2ccc(OC)c(OC)c2OC)CC1,i,0.4
NNC(=O)CN1CCCc2ccccc21,i,0.38
CC(=O)NCCn1c(C)cc2ccccc21,i,-1.17
O=c1c2cnn(-c3ccccc3)c2nnn1/N=C/c1cccnc1,i,-0.77
Cc1cc(C)n(CCC(=O)N2c3ccccc3CC2C)n1 (stereo not given),i,1.97
CCOc1ccc(OCC)c(NC(=O)C2CCN(c3ncccn3)CC2)c1,i,0.31
CCOC(=O)N1CCN(c2cc(=O)n(C3CCCCC3)c(=O)[nH]2)CC1,i,0.03
CC(=O)Nc1nc(C)c(S(N)(=O)=O)s1,i,2.31
Cc1ccc(Cl)cc1NC(=O)C1CC(=O)N(C(C)C)C1 (stereo not given),i,1.56
O=C1CSC(c2cccnc2)N1CCc1ccccn1 (stereo not given),i,0.51
c1ccc(C2=NOC(c3nnc(-c4ccccc4)o3)C2)cc1 (stereo not given),i,-1.37
CCCCN(CCCC)CC(O)COc1ccccc1Br (stereo not given),i,0.62
COc1ccccc1CNC(=O)c1ccccc1C(=O)NC(C)(C)C(=O)NCc1ccccc1OC,i,-0.08
CC(=O)Nc1ccc(NC(=O)C2CCC(CNS(=O)(=O)c3cccc4nsnc34)CC2)cc1 (stereo not given),i,-1.13
CCOC(=O)C1=C(N)OC2=C(C(=O)CC(C)(C)C2)C1c1cc(CSc2nnnn2C)cs1 (stereo not given),i,0.07
O=C(CSc1nc2ccccc2o1)N1N=C(c2cccs2)CC1c1ccc(F)cc1 (stereo not given),i,0.17
COc1ccc(C(=O)C2CCCN(C/C=C/c3ccccc3OC)C2)c(OC)c1 (stereo not given),i,1.38
CC(=O)c1ccc(NC(=O)C2C3C=CC(C3=C(c3ccccc3)c3ccccc3)C2C(=O)O)cc1 (stereo not given),i,-0.54

# In the list so far, these have two or more sulfur atoms:
SMILES,KCNQ2 block,KCNQ2 block baseline
CC(=O)Nc1nc(C)c(S(N)(=O)=O)s1,i,2.31
CC(=O)Nc1ccc(NC(=O)C2CCC(CNS(=O)(=O)c3cccc4nsnc34)CC2)cc1 (stereo not given),i,-1.13
CCOC(=O)C1=C(N)OC2=C(C(=O)CC(C)(C)C2)C1c1cc(CSc2nnnn2C)cs1 (stereo not given),i,0.07
O=C(CSc1nc2ccccc2o1)N1N=C(c2cccs2)CC1c1ccc(F)cc1 (stereo not given),i,0.17

# In a second layout: results already given
> O=C(CSc1nc2ccccc2o1)N1N=C(c2cccs2)CC1c1ccc(F)cc1 (stereo not given)
  KCNQ2 block: i	KCNQ2 block baseline: 0.17
> COc1ccc(C(=O)C2CCCN(C/C=C/c3ccccc3OC)C2)c(OC)c1 (stereo not given)
  KCNQ2 block: i	KCNQ2 block baseline: 1.38

# Remaining list, next part.
SMILES,KCNQ2 block,KCNQ2 block baseline
COc1ccccc1C(=O)Nc1ccc2c(c1)CCCN2C(=O)c1cccs1,i,-1.75
CC(C)(C)NC(=O)[C@H]1CC[C@H]2[C@@H]3CC[C@H]4NC(=O)C=C[C@]4(C)[C@H]3CC[C@]12C,i,1.24
CC1(C)CC(=O)C2=C(C1)NC(=O)NC2c1ccc(Cl)cc1 (stereo not given),i,-0.28
Cc1c(C(=O)N2CCCCC2)oc2ccc(Br)cc12,i,-0.75
CCOC(=O)COc1ccc2c(=O)cc(-c3ccccc3)oc2c1,i,-1.47
COC(=O)C1=C(C)NC(C)=C(C(=O)OC)C1c1ccc(-c2cccc(Cl)c2Cl)o1,i,-0.34
CC1CCC(NC(=O)CN2CCC(n3nnc4cc(F)ccc43)CC2)CC1 (stereo not given),i,-0.04
COCCNC(=O)C(c1cccnc1)N(Cc1ccccc1)C(=O)Cn1nnc2ccccc21 (stereo not given),i,0.06
COc1ccc(Br)cc1C(=O)NC(=S)Nc1ccc(CN2CCOCC2)cc1,i,1.65
COc1ccc(C(=O)c2ccc([N+](=O)[O-])cc2Cl)cc1,i,-1.66
O=C(NCC1CCC(C(=O)O)CC1)c1cccnc1 (stereo not given),i,1.23
CC(C)C[C@H](NC(=O)[C@@H](O)[C@H](N)Cc1ccccc1)C(=O)O,i,0.73
CCOC(=O)/C=c1\s/c(=C(\C#N)C(=O)OCC)n(-c2ccccc2)c1=O,i,0.61
COc1cc(/C=N/NC(=O)c2cccnc2)ccc1OC(=O)c1ccc2c(c1)OCO2,i,-0.06
O=C(Cn1nnc(-c2ccc(CN3CCOCC3)cc2)n1)N(c1ccccc1)c1ccccc1,i,0.03
CCN1C(=O)C2C(C1=O)N1C(c3ccccc3)C3C(=O)N(CC)C(=O)C3N1C2c1ccccc1 (stereo not given),i,-1.62
CN=C1CC(C)(C)CC(=O)/C1=C(/O)CCC(=O)NC,i,0.32
Cc1ccccc1OCc1nnc(SCC(=O)Nc2ccc3c(c2)oc2ccccc23)n1C,i,-0.63
c1cc(CNc2ccc(N3CCOCC3)cc2)ccn1,i,1.6
COc1ccccc1CC(=O)Nc1cccc2ccccc12,i,-0.98
Cn1c(=O)c(=O)n(C)c2cc(S(=O)(=O)N3CCCC3C(=O)Nc3ccccc3F)ccc21 (stereo not given),i,0.36
CCn1c2ccccc2c2cc(NC(=O)c3cccc([N+](=O)[O-])c3)ccc21,i,-1.28
CCOc1ccc(-c2noc(CCC(=O)NCCc3ccccc3)n2)cc1OC,i,-0.71
COc1ccc2nc(NC(=O)CCN3C(=S)NC(C)(C)CC3C)sc2c1 (stereo not given),i,-4.54
COc1cc(/C=C(\NC(=O)c2ccccc2)C(=O)Nc2cccc(O)c2)c([N+](=O)[O-])cc1OC,i,-1.32

# The list continues:
SMILES,KCNQ2 block,KCNQ2 block baseline
CCc1ccc(OCC(=O)Oc2ccc([N+](=O)[O-])cc2)cc1,i,1.1
Cc1ccc(C)c2c(N)c3c(nc12)CCCCC3 (tested in a mixture with another compound),i,1.55
COc1ccc(C(=O)NCCS(=O)(=O)N(C)C2CCCCC2)cc1,i,-0.74
COc1ccccc1C1=NOC(C)(c2nnc(Cc3ccccc3)o2)C1 (stereo not given),i,-0.69
COC(=O)CCCC(=O)NC1CC(C)(C)Cc2c1cnn2-c1ccc(C)cc1 (stereo not given),i,-1.98
COc1ccccc1C(=O)N/C(=C/c1ccc2c(c1)OCO2)C(=O)Nc1cccc(C(=O)O)c1,i,-0.21
Cc1ccc(NC(=O)CSc2cccc3cccnc23)c(C)c1,i,0.28
Cc1nn(-c2ccccc2)c(Cl)c1C(=O)OC(C)C(=O)Nc1ccc2c(c1)OCO2 (stereo not given),i,-2.28
COc1cccc(CNC(=O)CN2C(=O)COc3ccc(S(=O)(=O)N4CCCCCC4)cc32)c1,i,1.72
Cc1nc(SCC(=O)NCc2ccco2)c2c3c(sc2n1)CCCC3,i,1.27
Cc1cc(C)n(Cc2ccc(C(=O)Nc3ccc(Br)cc3C)o2)n1,i,0.1
Cc1ccc(CCN2CC(C(=O)NC3CCCC3)CC2=O)cc1 (stereo not given),i,2.81
CCC(=O)c1c(OCc2ccccc2)ccc2c(C)cc(=O)oc12,i,1.1
O=C(Cc1ccc(F)cc1)Nc1nc(-c2ccc(F)c(F)c2)cs1,i,-0.69
O=C(O)c1ccccc1OCCN1CCCC1=O,i,-0.21
CCOC(=O)CC1=NN(c2ccccc2)C(=O)C1,i,2.18
CC(CCc1ccco1)NC(=O)Cn1nc(Cc2ccncc2)c2ccccc2c1=O (stereo not given),i,-0.04
Cc1c(OCC(=O)N2CCN(c3ccccc3)CC2)ccc2c3c(c(=O)oc12)CCCC3,i,-0.88
O=[N+]([O-])c1cc(C(F)(F)F)cc([N+](=O)[O-])c1NCCNC(=S)Nc1cccc(F)c1,i,0.02
CC(C)N(c1ccccc1)c1ccc(NC(=O)COC(=O)CCN2C(=O)c3cccc([N+](=O)[O-])c3C2=O)cc1,i,0.44
O=C1C2C(c3ccccc3)CC=CC2[C@H](c2ccoc2)N1Cc1ccccc1 (stereo not given in full),i,-0.01
CCOc1cc(N2CCOCC2)c(OCC)cc1NC(=O)[C@H](C)N1C(=O)C2CC=CCC2C1=O (stereo not given in full),i,-1.22
COc1ccc(C2N(c3cc(Cl)ccc3OC)C(=O)C3CCCN32)cc1 (stereo not given),i,-0.15
CCOC(=O)c1cnc2c(Cl)cccc2c1NCCN1CCOCC1,i,-0.05
COc1ccc(-c2c3c(=O)n(C)c(=O)n(C)c3cn2N2CCOCC2)cc1,i,-1.15

# Sorted by molecular weight (high to low): seven of the compounds above.
SMILES,KCNQ2 block,KCNQ2 block baseline
COc1ccccc1C(=O)N/C(=C/c1ccc2c(c1)OCO2)C(=O)Nc1cccc(C(=O)O)c1,i,-0.21
Cc1nn(-c2ccccc2)c(Cl)c1C(=O)OC(C)C(=O)Nc1ccc2c(c1)OCO2 (stereo not given),i,-2.28
COC(=O)CCCC(=O)NC1CC(C)(C)Cc2c1cnn2-c1ccc(C)cc1 (stereo not given),i,-1.98
Cc1nc(SCC(=O)NCc2ccco2)c2c3c(sc2n1)CCCC3,i,1.27
COc1ccc(-c2c3c(=O)n(C)c(=O)n(C)c3cn2N2CCOCC2)cc1,i,-1.15
O=C1C2C(c3ccccc3)CC=CC2[C@H](c2ccoc2)N1Cc1ccccc1 (stereo not given in full),i,-0.01
O=C(O)c1ccccc1OCCN1CCCC1=O,i,-0.21

# Continued.
SMILES,KCNQ2 block,KCNQ2 block baseline
CC1(C)CC(=O)C2=C(C1)OC(N)=C([N+](=O)[O-])C2c1cccs1 (stereo not given),i,1.93
Cc1nc2cc(O)ccc2n1C,i,0.97
COc1ccc(NC(=O)CSc2nc(C)cs2)cc1,i,-0.68
c1coc(CNc2ncnc3sc4c(c23)CCCCC4)c1,i,1.43
CCOc1ccc(N/C=C/C(=O)c2ccccc2)cc1,i,-1.9
COc1ccc(C2C(C(=O)N3CCN(c4ccccc4F)CC3)c3ccccc3C(=O)N2C)cc1 (stereo not given),i,1.17
CCn1c(C)cc2c(c1=O)C(c1ccccc1Br)C(C#N)=C(N)O2 (stereo not given),i,-0.27
Nc1nc(N)c(N=Nc2ccc(SCC(=O)O)cc2)c(=O)[nH]1,i,0.75
CC(C)n1c(SCCCc2ccccc2)nc2c1c(=O)[nH]c(=O)n2C,i,1.45
COc1ccc(CCNc2ncnc3sc(C)cc23)cc1OC,i,-0.58
Cc1ccc(NC(=O)Cn2c(/C=C/c3ccccc3)nc3ccccc32)cc1C,i,0.46
NC(=O)CSc1nnnn1-c1ccc2c(c1)OCCO2,i,0.96
CC1(C)CC2(CCO1)C(Nc1ccccc1)=NC(=S)N2c1ccccc1 (stereo not given),i,-0.32
Cc1ccc(S(=O)(=O)NCCCOC(=O)Nc2ccncc2)cc1,i,0.01
CCOC(=O)c1cc(-c2ccccc2)n(CCC(=O)N2CCN(c3ccccc3OC)CC2)c1C,i,1.17
CCCCOc1ccc(CSCCNC(=S)Nc2ccccc2)cc1,i,-0.25
COc1cccc(CN2CC(C(=O)N(C)Cc3nc4ccc(F)cc4[nH]3)CCC2=O)c1 (stereo not given),i,-0.65
Cc1ccc(S(=O)(=O)Nc2cccc(C(=O)NCc3cccnc3)c2)cc1F,i,0.01
O=C(c1cccs1)N1CCc2c([nH]c3ccccc23)C1c1ccc(Cl)cc1 (stereo not given),i,-1.37
CN(C)CC(O)CN1C(=O)NC(C)(C)C1=O (stereo not given),i,0.11
CCn1c(CNc2ccc(OC)cc2)nnc1SCC(=O)N1CCCc2ccccc21,i,-1.65
Cc1cccc(C(=O)OCC(=O)NC(C)CCc2ccccc2)c1O (stereo not given),i,0.04
Cn1c(C(N)=O)cnc1Sc1ncc(C(F)(F)F)cc1Cl,i,0.06
Cc1nnc(-c2cnn(-c3ccccc3)c2N)n1Cc1ccccc1,i,0.25
C=CCn1c(CSc2nnc(-c3ccccc3)n2C)n[nH]c1=S,i,1.49

# Fetched one by one from the entries so far, 2 records:
SMILES,KCNQ2 block,KCNQ2 block baseline
Cc1nn(-c2ccccc2)c(Cl)c1C(=O)OC(C)C(=O)Nc1ccc2c(c1)OCO2 (stereo not given),i,-2.28
CCOC(=O)c1cnc2c(Cl)cccc2c1NCCN1CCOCC1,i,-0.05

# (next part)
SMILES,KCNQ2 block,KCNQ2 block baseline
CC1Cc2ccccc2N1c1ncnc2c1nnn2Cc1ccccc1 (stereo not given),i,-0.17
O=C(COc1ccccc1Cl)NCCCN1CCOCC1,i,-0.14
CC1(C(=O)O)Sc2[nH]c(=O)sc2C2c3ccccc3OC(=O)C21 (stereo not given),i,-1.03
O=C(Nc1nc(COc2ccccc2)cs1)C12CC3CC(CC(C3)C1)C2,i,-0.57
Cc1cc(Cl)ccc1OCC(O)CNCCc1ccc(S(N)(=O)=O)cc1 (stereo not given),i,-1.17
Cc1occc1C(=O)NC1CCCCCC1,i,-0.04
CCOc1ccc(C(CC(=O)O)NC(=O)C2c3ccccc3Oc3ccccc32)cc1 (stereo not given),i,-0.18
CCOC(=O)c1cccc(NC(=O)CCc2nnc3ccc(N4CCN(C)CC4)nn23)c1,i,-0.31
CC(C)c1cc(C(=O)N2CCCC(N3CCN(c4ccc(F)cc4)CC3)C2)no1 (stereo not given),i,0.75
Cc1c(-c2cc(Br)ccc2O)nc2cc3c(cc2c1C)OCO3,i,0.87
CN1CCN(C(=O)/C(=C/c2ccc(F)cc2)NC(=O)c2ccccc2)CC1,i,2.18
CCCCOC(=O)CCn1c(=S)oc2ccccc21,i,0.21
O=C(CSc1ccccc1)N1CCN(C(=O)c2ccco2)CC1,i,-0.03

# Source: PubChem (Johns Hopkins Ion Channel Center)

# Not all compounds are listed; count on the stated rates, not on these rows.
